# gsp ag: qHTS for Agonist of gsp, the Etiologic Mutation Responsible for Fibrous Dysplasia/McCune-Albright Syndrome: qHTS. gsp mutant cells, cAMP HTRF, 30 min; control for the full effect not named in the record. Potency, µM (top dose mostly 76.9 µM), for the others: at the top dose activation (cAMP increase), hits mostly activators. hit rate 0.13% among 340,000; active = well fitted activation curve with a large enough effect; inconclusive = small, poorly fitted or top-dose-only effect, or another doubt; inactive = no such curve, though single readings can be large or run the other way; cell line not stated here;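 further: phosphodiesterase inhibitor Ro 20-1724 added with compounds to block cAMP breakdown; potency means the concentration at half of the fitted maximal effect; nearly all actives have a fitted effect of over 60% in size; about a fifth of the inactives were tested at one dose only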
#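 Cells stably selected in G418 were plated at 2000/well, grown 16-24 hr, then given compounds in DMSO with the PDE inhibitor […] (300 uM solution added) for 30 min at 37C; cAMP was read by HTRF.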
# Sfp inh: qHTS Assay for Inhibitors of Bacillus subtilis Sfp phosphopantetheinyl transferase (PPTase); 4'-phosphopantetheinyl transferase ffp (Bacillus subtilis), Q9F4F7; Biochemical Sfp PPTase activity, qHTS; Potency, µM, inactives show max response, negative = inhibition, usual class: inhibitors; hit rate 3.5% among 310,000; active means well fitted inhibition curve with a large enough effect; inconclusive means small, poorly fitted or top-dose-only effect, or another doubt; inactive means no such curve, though single readings can be large or run the other way;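 further: the enzyme is Sfp with the accession as filed and its product quenches rhodamine fluorescence; potency means the concentration at half of the fitted maximal effect; 0% = enzyme reaction without inhibitor and -100% = no enzyme wells; top concentration of the series not given in the record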
#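 Sfp 15 nM + cpd, 15 min RT; start w/ rhodamine-CoA 5 uM, BHQ-2-YbbR 12.5 uM (final); 50 mM Hepes pH 7.6, 10 mM MgCl2, 0.01% NP-40, 0.01% BSA; read 525/598 nm at 0 and 30 min.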
# ClpP mod: qHTS Assay for Activators of ClpP; ATP-dependent Clp protease proteolytic subunit (Bacillus subtilis (strain 168)), P80244; purified B. subtilis ClpP, FRET peptide cleavage, 20 min; Potency, µM (titrated, usually from 57.5 µM), without a hit: top-dose activity change, negative = active; hit rate 1.9% among 340,000; AID 651965, 2013; active = well fitted falling curve with a large enough effect; inconclusive = small, poorly fitted or top-dose-only effect; inactive = no such curve, though single readings can be large or run the other way; further: potency means the concentration at half of the fitted maximal effect; the source files actives as falling curves though it sought activators and does not explain the sign; nearly all actives have a fitted effect of over 65% in size; many hits overshoot -100%
# Target sequence (P80244 whole entry, looked up): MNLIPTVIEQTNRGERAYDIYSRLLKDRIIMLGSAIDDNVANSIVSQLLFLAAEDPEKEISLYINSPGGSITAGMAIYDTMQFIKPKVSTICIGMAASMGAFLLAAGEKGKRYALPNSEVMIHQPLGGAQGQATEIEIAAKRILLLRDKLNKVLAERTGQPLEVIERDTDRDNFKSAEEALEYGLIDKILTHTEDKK
#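 Buffer: 100 mM Tris/HCl pH8, 100 mM KCl, 0.05% low protease BSA, 2.5% glycerol, 0.01% Tween-20. ClpP 10 microg/mL final; 20 min RT; delta FRET normalized to ADEP and DMSO controls.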
# CtBP-E1A blk: qHTS Assay for Inhibitors of the CtBP/E1A Interaction; CtBP / adenovirus E1A interaction (AlphaScreen); AlphaScreen GST-E1A/His-CtBP binding, 1536-well; stronger effect = lower value; control for the full effect not named in the record; activity change, % (no concentration beside the values); hit rate 0.49% among 340,000; AID 651724, 2012; in the data active means activity change below about -65%; inconclusive means about -30% to -65%; inactive means above about -30%; further: on the % scale 0 is the no-effect control and ±100 the full control effect; compound concentration not given in the record
#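 GST-E1A and His-tagged CtBP (125 nM each as 5X stock) were preincubated with pin-transferred compound for 2 h at 37 °C in the dark, then glutathione donor and nickel acceptor beads were added for 1 h before AlphaScreen reading.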
# Menin MLL FP FL: qHTS Assay for Inhibitors Targeting the Menin-MLL Interaction in MLL Related Leukemias: Competition With Fluorescein Labeled MLL-derived Peptide. Fluorescence polarization, fluorescein-MLL peptide displacement from menin. FP activity change, % at 61.4 µM. 290,000 tested, under 10 active. AID 1766, 2009; inconclusive = falling polarisation curve, or a change in total fluorescence; inactive = total fluorescence flat and polarisation flat or rising; no compound was filed as active; the % refers to the polarisation; negative = inhibition;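 further: % of control where 0% means no effect; inhibitors lower the polarisation; unlabelled MLL peptide was the positive control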
# gsp antagonist: qHTS for Antagonists of gsp, the Etiologic Mutation Responsible for Fibrous Dysplasia/McCune-Albright Syndrome: qHTS; gsp-mutant cells, cAMP HTRF, 30 min; control for the full effect not named in the record; Potency, µM (series often up to 76.9 µM), for the others: at the highest dose activity change, negative = inhibition, most hits filed as inhibitors; hit rate 0.4% among 340,000; AID 624288, 2012; active = falling curve of any shape with a large fitted effect; inconclusive = falling curve, mostly with a smaller effect; inactive = flat or rising curve; cell line not stated here;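 further: intracellular cAMP measured with PDE inhibitor Ro 20-1724 present during compound exposure; potency means the concentration at half of the fitted maximal effect; on the % scale 0 is the no-effect control and ±100 the full control effect; nearly all actives have a fitted effect of over 65% in size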
#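 Cells in G418 medium, seeded 16-24 h, 37C; buffer exchange to DPBS + 1 mM CaCl2, 0.5 mM MgCl2, 0.05% BSA; cpds in DMSO + […] (300 uM stock), 30 min 37C; HTRF cAMP detection.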
# TRPV1 potentiator: HTS Assay for Compounds that Act as Potentiators of the Vanilloid Receptor 1 | Transient receptor potential cation channel subfamily V member 1 (Homo sapiens), Q8NER1 | TRPV1-expressing cells, Fluo-8 calcium influx, capsaicin EC20 potentiation; host cell line not named in the record; control for the full effect not named in the record | potentiation, % at 8.33 µM | hit rate 0.02% among 320,000 | AID 540277, 2011; active means potentiation above 80%; inconclusive means 30% to 80%; inactive means below 30%; further: 0% is about no effect
# Target sequence (Q8NER1 whole entry, looked up): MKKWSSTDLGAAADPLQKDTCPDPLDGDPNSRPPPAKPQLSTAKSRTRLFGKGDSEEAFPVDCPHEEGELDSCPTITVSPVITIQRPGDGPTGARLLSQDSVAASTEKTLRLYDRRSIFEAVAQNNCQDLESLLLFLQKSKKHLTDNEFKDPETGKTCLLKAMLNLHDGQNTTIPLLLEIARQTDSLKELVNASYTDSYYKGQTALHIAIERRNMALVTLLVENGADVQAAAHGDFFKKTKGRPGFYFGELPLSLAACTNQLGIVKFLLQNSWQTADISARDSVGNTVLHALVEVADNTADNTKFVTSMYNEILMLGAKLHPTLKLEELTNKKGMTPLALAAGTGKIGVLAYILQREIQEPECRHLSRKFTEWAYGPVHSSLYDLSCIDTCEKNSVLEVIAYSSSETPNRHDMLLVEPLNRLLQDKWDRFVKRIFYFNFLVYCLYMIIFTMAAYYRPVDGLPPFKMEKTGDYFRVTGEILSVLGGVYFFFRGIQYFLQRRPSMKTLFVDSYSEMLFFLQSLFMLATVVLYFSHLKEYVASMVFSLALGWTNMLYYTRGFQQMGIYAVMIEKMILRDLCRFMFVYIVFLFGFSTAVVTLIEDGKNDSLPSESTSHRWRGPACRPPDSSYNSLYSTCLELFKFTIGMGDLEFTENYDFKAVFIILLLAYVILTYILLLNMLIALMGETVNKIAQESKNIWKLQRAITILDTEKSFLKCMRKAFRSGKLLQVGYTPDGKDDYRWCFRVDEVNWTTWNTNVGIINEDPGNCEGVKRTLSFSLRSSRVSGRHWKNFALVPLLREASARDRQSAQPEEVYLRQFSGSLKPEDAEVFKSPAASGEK
#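 Cells expressing TRPV1 were dye-loaded with Fluo-8 and read kinetically: 10 s baseline, 3 min after compound (agonist portion), then 2 min after EC20 capsaicin (allosteric enhancer portion). Calcium-bound dye fluorescence at 480/520 nm.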
# * = called active by the depositor; ? = inconclusive; / = no result given; & = joins results of further samples; [ ] = remark or other dose.
# Every second line gives: Sfp inh	gsp ag	ClpP mod	gsp antagonist	Menin MLL FP FL	CtBP-E1A blk	TRPV1 potentiator
CC(C)=NOCC(=O)Nn1c(COc2c(C)cccc2C)nc2ccccc2c1=O
→ 16%	6%[15.4 µM]	/	-5%	-2.2	0	5
CC(=O)C12OC1CC1C3CCC4=CC(=O)CCC4(C)C3CCC12C (stereo not drawn)
→ 15%	16%	3.5%	-5%	-0.7	-4	7
CCOC(=O)C1CCN(c2nc(C)nc3c2oc2ccccc23)CC1
→ -14%	14%	-12%	-21%	-0.7	-3	-10
CN1C(C(=O)NCc2ccco2)CC2Cn3c(nc4ccccc43)C21 (stereo not drawn)
→ /	/	-3.2%	-5%	/	-6	18
COc1ccc(S(=O)(=O)Nc2ccc(S(=O)(=O)N(C)C)cc2)cc1[N+](=O)[O-]
→ 4%	21%	-2.7%	-14%	5.4	7	-10
Cc1ccc(C(=O)O)cc1NC(=O)CSc1nnc(-c2ccccc2F)n1C1CCCCC1
→ /	7%	-0.5%	-14%	/	/	/
Cc1ccc(Nc2nc(N3CCOCC3)nc(N3CCOCC3)n2)cc1Cl
→ -3%	26%	1.7%	4%	-4.2	2	-12
CC(=O)c1ccc(S(=O)(=O)N(C)CC(=O)N2CCCCCC2)cc1
→ 4%	38%	-1.2%	15%	-1.0	5	-5
CN1C(=O)c2ccc(C(=O)Nc3nccs3)cc2C1=O
→ 26%	?	-1.5%	-4%	3.1	-10	0
COc1ccc(S(=O)(=O)Nc2ccc(Cl)cn2)c(C)c1C
→ 13%	-2%	-19%	?	2.1	3	8
Cc1cc(NC(=O)COC(=O)c2ccc(OC(F)(F)F)cc2)no1
→ /	-2%	0.9%	13%	/	-12	-4
CC(C)CC1C(=O)N(Cc2cn(CCC3OCCO3)nn2)CCS(=O)(=O)N1Cc1ccc(-c2ccc(F)nc2)cc1 (stereo not drawn)
→ /	3%	2.0%	/	/	1	/
Cc1ccccc1NC(=O)COc1ccc(S(=O)(=O)N2CCCC2)cc1C
→ 1%	15%[15.4 µM]	-0.6%	-9%	/	9	-1
CC(C)CNS(=O)(=O)c1ccc(S(=O)(=O)N2CCN(C3CCCC3)CC2)cc1
→ 6%	29%[15.4 µM]	-0.8%	-17%	8.0	1	-1
COc1ccc(NS(=O)(=O)c2cc(NC(=O)[C@H](C)NC(N)=O)ccc2N2CCCC2)cc1
→ /	23%[15.4 µM]	-0.7%	1%	/	3	/
COc1ccc(-c2noc(-c3ccc(Cl)cc3)n2)cc1
→ 14%	16%	-26%	3%	3.3	9	4
Cc1ccc(C(=O)NC=C(Cl)Cl)cc1
→ -3%	-28%	-2.2%	0%	4.6	6	-13
COc1ccc(C2=CC(c3cc(OC)c(OC)c(OC)c3)NC(=S)N2)cc1 (stereo not drawn)
→ 14%	-3%	-6.3%	14%	2.1	0	2
CC(=O)c1ccc(OCC(O)Cn2nnc3ccccc32)cc1 (stereo not drawn)
→ 11%	-2%	-3.4%	-23%	-0.4	-25	6
CCOc1cc(S(=O)(=O)NCc2ccc3c(c2)OCO3)ccc1F
→ 14%	5%	1.8%	-1%	1.4	-2	2
CCOC(=O)c1c(NC(=O)CSc2nc3cccnc3n2C)sc(C(C)=O)c1C
→ ?	0%	1.4%	-16%	-0.2	3	6
CC(NC(=S)NNS(=O)(=O)c1cccc([N+](=O)[O-])c1)c1ccccc1 (stereo not drawn)
→ 16%	?	2.0%	-1%	4.8	6	-2
CCn1c(C(=O)O)c(CC(=O)Nc2ccccc2F)c2ccccc21
→ -12%	20%	-1.8%	-1%	-1.2	/	20
Fc1cc(Br)cc(F)c1NC(=S)N1CCOCC1
→ 1%	23%[15.4 µM]	0.1%	-14%	1.2	2	-24
O=C(Cn1nnc(-c2ccccc2F)n1)Nc1cccc2ncccc12
→ -4%	28%	-0.1%	-9%	4.5	1	-3
CC(OC(=O)c1ccc(-c2ccc([N+](=O)[O-])cc2)o1)C(=O)NC(N)=O (stereo not drawn)
→ -21%	-2%[15.4 µM]	/	-8%	0.5	-8	-1
Cc1ccc2cccc(OCCCOc3ccccc3F)c2n1
→ -8%	-8%	-19%	?	3.9	25	10
Nc1ccc(N2CCN(c3cccc(Cl)c3)CC2)cc1
→ -8%	0%	-6.8%	-5%	1.7	-3	5
CCOc1ccc2nc(NC(=O)C3CCCN(S(=O)(=O)c4c(C)noc4C)C3)sc2c1 (stereo not drawn)
→ -3%	-38%[inhibitor]	-0.3%	-14%	0.4	-12	5
CC(=O)c1ccc(N2CCN(S(=O)(=O)c3cc4[nH]c(=O)c(=O)[nH]c4cc3C)CC2)cc1
→ -13%	4%	-6.2%&-20%	5%	1.8	-1	7
CC(C)(C)n1nnnc1C(c1cccnc1)N1CCN(C(=O)c2ccco2)CC1 (stereo not drawn)
→ -24%	-37%[inhibitor]	-5.3%	3%	-3.4	1	0
Cc1cc(C)c(NC(=S)NC(CO)(CO)CO)c(C)c1
→ -6%	6%[15.4 µM]	-0.4%	0%	0.0	1	-9
COC(=O)/C=C(\C)NC(=O)c1ccccc1Cl
→ 13%	-16%	-2.5%	?	2.6	7	-4
O=C(NCCCn1ccnc1)c1ccc(Cl)cc1
→ 11%	1%	/	3%	2.2	-21	7
COc1cc2c(c(OC)c1OC)C(c1ccc3c(c1)OCO3)CC(=O)O2 (stereo not drawn)
→ -10%	/	-2.4%	-3%	-0.1[94.6 µM]	-2	/
O=C(O)c1cccc(NC2=C(n3nnc4ccccc43)C(=O)c3ccccc3C2=O)c1
→ -1%	7%	1.8%	3%	3.6	-3	26
CN(C)CCCN(CCCNC(=O)/C=N/O)Cc1ccccc1
→ 11%	-2%	-1.3%	4%	2.5	4	0
CC(C)c1ccc(C(=O)CC2(O)C(=O)N(CN3CCOCC3)c3ccccc32)cc1 (stereo not drawn)
→ 4%	-33%	-0.3%	-10%	-0.2	4	12
COCCOC(=O)/C(=C/c1ccc(OC(=O)c2ccccc2)cc1)C(C)=O
→ ?	7%	4.3%	0%	3.4	0	4
COC(=O)c1ccccc1NC(=O)CNC(=O)c1ccc(OC)c(OC)c1
→ 26%	-7%[15.4 µM]	0.9%	-15%	-0.5	-19	0
COc1ccc(CCN2C(=O)CCC2(C)C(=O)NCc2cccnc2)cc1OC (stereo not drawn)
→ 14%	-8%	-1.0%	3%	4.7	-4	-1
CCOC(=O)C(C)N1C(=O)S/C(=C/c2cc(C)n(-c3ccccn3)c2C)C1=O (stereo not drawn)
→ -4%	16%	3.3%	?	-0.5	-10	-2
O=[N+]([O-])c1cccnc1Oc1ccccc1F
→ -4%	-8%[15.4 µM]	/	-18%	-4.2	-2	-13
Cc1ccc(-c2nc(SCC(=O)c3c(N)n(C4CC4)c(=O)[nH]c3=O)n[nH]2)cc1
→ /	?	-1.6%	-3%	/	/	/
O=C(Cn1cncn1)N/N=C/c1ccncc1
→ 5%	0%	0.3%	11%	1.8	/	?
COc1ccc(Nc2ncnc3sc(C)cc23)cc1
→ 1%	-3%	0.6%	-16%	6.7	/	-15
CSc1ccccc1NC(=O)CN(C)C(=O)COc1ncnc2ccccc12
→ /	-12%[15.4 µM]	0.3%	16%	/	3	/
Cc1ccc(NC(=S)N/N=C2\CC3CC=CC23)c(C)c1 (stereo not drawn)
→ 32µM*	-25%	-3.6%	-1%	15	-24	-5
Cc1ccc(C2=NOC3(CC(=O)N(c4ccc(C)cc4)C3=O)C2)cc1 (stereo not drawn)
→ 6%	-4%[15.4 µM]	-10%	3%	-5.7	-4	-3
CC(Sc1nncs1)C(=O)NC1CCCCC1C (stereo not drawn)
→ -10%	-23%	1.8%	1%	0.9	0	12

# (listing goes on)
# Every second line gives: Sfp inh	gsp ag	ClpP mod	gsp antagonist	Menin MLL FP FL	CtBP-E1A blk	TRPV1 potentiator
O=C(NCCc1ccccc1)C1CCN(Cc2cccc3ccccc23)CC1
→ 3%	46%[15.4 µM]	16µM*	15%	-0.8	4	-4
Cc1ccc(SCC(=O)Nc2cc([N+](=O)[O-])ccc2O)cc1
→ 7%	-28%[15.4 µM]	/	50µM*	-1.9	62	-9
Cc1cc(C)n(-c2nc3sc4c(c3c3nnc(SCC(N)=O)n23)CC(C)(C)OC4)n1
→ 10%	-4%	?	0%	2.7	-1	2
CCN(CC(=O)NCc1cccs1)C(=O)c1ccc([N+](=O)[O-])o1
→ /	-1%[15.4 µM]	-2.2%	-2%	/	4	1
COc1ccc(CCNC(=O)CSc2ccccn2)cc1OC
→ -30%	6%[15.4 µM]	/	7%	7.6	-3	4
CN1CCc2c(C#N)c(N3CCCCC3)nc(N3CCOCC3)c2C1
→ /	-2%	?	-6%	/	0	/
CCOC(CNC(=O)CN1C(=O)COc2ccc(S(=O)(=O)N3CCOCC3)cc21)OCC
→ 11%	31%	0.5%	17%	/	-7	-2
COc1ccc(OCc2cc(C(=O)N3CCCC(OC)C3)no2)c2ccccc12 (stereo not drawn)
→ -11%	-2%[15.4 µM]	-0.7%	-3%	-1.6	-6	-6
COc1cc(OC)cc(C(=O)OC(C)C(=O)NC2CCCc3ccccc32)c1 (stereo not drawn)
→ /	-75%[inhibitor]	-4.2%	-2%	/	3	-7
CC(C)Oc1ccc(CCNC(=O)C2CCC(=O)N(Cc3cccc(F)c3)C2)cc1 (stereo not drawn)
→ 11%	-43%[inhibitor]	1.1%	-17%	/	3	-27
CC(C)CC1(C)NC(=O)N(CC(=O)Nc2ccc(F)c(F)c2F)C1=O (stereo not drawn)
→ /	-21%	-0.9%	6%	/	-3	/
COc1cc(Cn2c(N)c(C#N)c3nc4ccccc4nc32)cc(OC)c1
→ -5%	2%	32µM*	-4%	0.9	3	-6

# Source: PubChem (National Center for Advancing Translational Sciences (NCATS))
